High-throughput results (PubChem)
NPYLR7 agonist = activates Aedes aegypti NPYLR7 receptor | HEK293T NPYLR7/Galpha15, GCaMP6s calcium fluorescence | activation, % at 10 µM | 0.15% of 270,000 active | AID 1259423; in the data active means activation above about 40%;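 further: 0% = vehicle and 100% = reference agonist at the receptor; some compounds past the cut are filed as inactive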
NPYLR7 agonist max-min = recorded beside NPYLR7 agonist, whose call it bears; activation, %; measured here: Max-Min RFU normalised activation; some inactives read as strong as hits;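 span of the calcium signal over five minutes; 0% = vehicle and 100% = native peptide agonist; compound fluorescence can raise it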
* marks the source's active call; other numbers are inactive results; & = joins results of further samples.

molecule	NPYLR7 agonist	NPYLR7 agonist max-min
CCc1nc2c(OCc3ccc(C(=O)N(C)C)cc3)cccn2c1N(C=O)Cc1ccccc1	-1	-2
CCN(CC)c1ccc(CN(Cc2ccco2)C(=O)c2ccccc2Cl)c(OS(C)(=O)=O)c1	24	27
O=C(CS(=O)(=O)c1ncc(C(F)(F)F)cc1Cl)N1CCCCCCC1	9	5
COc1ccc(C2C(C#N)=C3Sc4ccccc4N3C(=N)C2C#N)cc1 (stereo not drawn)	-6	-5
O=C(C1=CCCC1)N1CCC2(CCCN(CCc3ccccc3)C2)C1 (stereo not drawn)	20	17
CCN1CCN(c2c(CN(CCOC)C(=O)c3ccccc3OC)c(C)nn2-c2ccccc2)CC1	6	11
CCOc1ccc(C(=O)CCC(=O)N2CCC[C@H]2C(=O)O)cc1C	1	-1
CCN(CC)c1ccc(/C=C2\SC(=S)N(NC(=O)c3ccc(OC)cc3)C2=O)cc1	-1	-10
CCCCn1c(=O)[nH]c(=O)c2c1nc(COC(=O)CC1CCCC1)n2CC	6	3
COC(=O)CNC(=O)CSc1nnc(NCc2ccc(OC)cc2)s1	2	2
Cc1nnc(SCC(=O)N(c2ccccc2)C(C)C)n1-n1cccc1	9	8
COC(=O)c1ccc(COC(=O)C(C)NC(=O)c2ccco2)o1 (stereo not drawn)	10	8
O=C1NCC2(CCCN(C(=O)c3cc(-c4ccccc4)on3)C2)O1 (stereo not drawn)	11	11
CC(C)C(NC(=O)Cn1nnc(-c2ccccc2Cl)n1)c1cccs1 (stereo not drawn)	2	6
CCCc1c(C(=O)N2CCCC(C(=O)OCC)C2)cnn1-c1ccc(Cl)c(Cl)c1 (stereo not drawn)	4	13
CCOCCn1c(SCc2cccc(C)c2)nc2c1c(=O)[nH]c(=O)n2C	17	9
CCc1cc(N2CCCC2)n2ncnc2n1	-6	3
CCOc1ccc(NC(=O)N2CCc3ccccc3C2c2ccc(C)cc2)cc1 (stereo not drawn)	22	12
COCCNC(=O)C(NC(=O)c1ccccc1Cl)C1CCN(C(=O)c2ccc(OC)cc2)CC1 (stereo not drawn)	-12	-10
CCc1cc(N2C[C@H](OC(C)C)[C@@H](O)C2)nc(N(C)C)n1	-10	-11

Four of these compounds in a different format:
Each structure is followed by: NPYLR7 agonist | NPYLR7 agonist max-min
O=C(C1=CCCC1)N1CCC2(CCCN(CCc3ccccc3)C2)C1 (stereo not drawn)
 : 20 | 17
CCN1CCN(c2c(CN(CCOC)C(=O)c3ccccc3OC)c(C)nn2-c2ccccc2)CC1
 : 6 | 11
CCOc1ccc(C(=O)CCC(=O)N2CCC[C@H]2C(=O)O)cc1C
 : 1 | -1
CCN(CC)c1ccc(/C=C2\SC(=S)N(NC(=O)c3ccc(OC)cc3)C2=O)cc1
 : -1 | -10

Continuation.
molecule	NPYLR7 agonist	NPYLR7 agonist max-min
OCC1(CCc2ccccc2)CCCN(C2Cc3ccccc3C2)C1 (stereo not drawn)	7	9
O=C(c1ccccc1-c1ncc[nH]1)N1CC[C@@H](N2CCCCCC2)[C@H](O)C1	14	15
COc1ccc(OCC2CN(C(=O)c3cc(F)c(F)c(F)c3F)CCO2)cc1 (stereo not drawn)	12	0
Cn1cc(CNC2CC(=O)N(CCc3cccc(Cl)c3)C2)cn1 (stereo not drawn)	6	4
COc1ccc(C)cc1NC(=O)c1ccc2c(c1)NC(=O)CO2	-5	-5
CC1=C(C(=O)NCCc2nc3c(s2)CCC3)C(c2nc[nH]c2C)NC(=O)N1 (stereo not drawn)	4	-1
CC(NC(=O)C1CCN(C(=O)c2ccco2)CC1)c1cccs1 (stereo not drawn)	9	4
COc1ccc(S(=O)(=O)NCC2CCCO2)cc1N1CCN(S(=O)(=O)c2ccc(F)c(Cl)c2)CC1 (stereo not drawn)	17	17
CCOC(=O)C1=C(C)NC(=O)NC1c1ccc(C)o1 (stereo not drawn)	0	-2
COc1ccc(C2CC(c3ccccc3Cl)=NN2C(=O)CN2CCc3ccccc3C2)cc1 (stereo not drawn)	-3	8
COc1cccc(NC(=O)CCC2CCN(C(=O)Cc3cccc(F)c3)CC2)c1	6	2
Cc1cc(=O)n2c(n1)SCC2CC(=O)Nc1ccncc1 (stereo not drawn)	-3	-4
COc1ccc(C(c2c(O)cc(C)n(Cc3cccnc3)c2=O)N2CCN(c3ccccc3)CC2)cc1 (stereo not drawn)	7	2
COc1ccc(C#N)cc1NC(=O)CC1(C(=O)O)CCCCCC1	6	15
C(=Nc1nccs1)Nc1nccs1	-3	-5
CC(C)N(CC(O)COC12CC3CC(CC(C3)C1)C2)C(C)C (stereo not drawn)	5	6
CCC(C(=O)Nc1c(-c2cc(C)cc(C)c2)nc2ccccn12)c1ccccc1 (stereo not drawn)	-3	6
COc1ccc(C)cc1-n1c(C(C)N(Cc2ccccc2)C(=O)c2ccc(Br)cc2)nc2ccccc2c1=O (stereo not drawn)	-5	-2
Cc1ccc(C2=Nc3nnnn3C(c3ccc(N(C)C)cc3)C2)cc1 (stereo not drawn)	3	-1
Cc1nc(CNC(=O)c2coc(Cn3cnc4ccccc43)n2)cs1	11	9
CCCCn1c(=O)c2cccnc2n2c3ccccc3nc12	1	0
CCN(CC)C(=O)Oc1ccc2c(ccn2Cc2cc(Cl)cc(Cl)c2)c1-c1ccc(OC)c(OC)c1	17	4
COc1cccc(-c2nccn2CC2(O)CCCCC2)c1F	-1	-5
C=CCNc1ccccc1C(=O)N(C)C1CCCCC1	-8	-12
Cc1ccc(C)c(S(=O)(=O)Nc2cc3c4c(oc3c3ccccc23)CCCC4=O)c1	-6	-10
CC(c1cccc(-c2ccc3nc(CO)[nH]c3c2)c1)N1CCCC1 (stereo not drawn)	27	11
CCn1cc(NC(=O)NCCSc2c[nH]c3ccccc23)c2ccccc21	17	11
Cc1cccn2c(CNC3CSCCSC3)cnc12	11	-4
COCCS(=O)(=O)NC(c1ccccc1)C1CC1 (stereo not drawn)	2	0
c1ccc(CNc2ncc(-c3nccn3CC3CCCCO3)cn2)cc1 (stereo not drawn)	8	5
CCOC(=O)CCC(=O)NCC1CCN(c2nc(Cc3ccccc3)ns2)CC1	3	8
Cc1nc(C)c(C(C)NC(=O)c2cc(C3CC3)nn2C(C)(C)C)s1 (stereo not drawn)	2	-2
CCONC(=O)c1cc(S(=O)(=O)NC(C)C)cn1C	10	2
CCS(=O)(=O)CC(C)N(C)c1ccnc2cc(F)ccc12 (stereo not drawn)	1	-1
C=CCn1c(=NC(=O)c2ccc(SC)cc2)sc2cc(S(C)(=O)=O)ccc21	7	6
N#Cc1ccc(COC(=O)c2ccc3c(c2)SC2=NS(=O)(=O)CCN23)cc1	6	2
Cn1cc(CN(CCO)C(=O)c2cccc(-c3cccc(F)c3)c2)cn1	12	1
CCOc1cccc(C(=O)Nc2nnc(SCc3ccc(Cl)cc3Cl)s2)c1	-4	-9
O=C(Nc1nnc(SCC2CC2)s1)C1CCCC1	-5	7
O=C(c1ccccc1-c1ncc[nH]1)N1CCCC2(C1)C(=O)Nc1ccccc12 (stereo not drawn)	0	-1
CC(C)CC(=O)N(CCN1CCOCC1)Cc1nccn1Cc1ccc(F)c(F)c1	6	12
Cc1cc(C(=O)N2CCN(c3ccccc3F)CC2)nc2cc(-c3ccccc3)nn12	-7&1	-5&4
C=CCn1c2ccccc2n2cc(-c3ccc(OC)cc3)nc12	-14	-21
Cc1cccc(-c2noc(CN(C)C(=O)C(C)(C)NC(=O)c3cccs3)n2)c1	-3	-11
CN1CCN(C(CNC(=O)NCc2ccccc2)c2ccc3c(c2)CCCN3C)CC1 (stereo not drawn)	-7	-12
CCS(=O)(=O)Oc1cccc(CN(CC(C)C)C(=O)c2ccc(Cl)cc2)c1	-6	2
Cc1cccc(Cn2c(=O)c(C(=O)Nc3ccccc3)nn(-c3ccc(Cl)cc3)c2=O)c1	6	15
COc1cccc(C(=O)N2C(C(=O)NCC3CCCO3)COC23CCN(C(=O)c2cccc(Cl)c2)CC3)c1 (stereo not drawn)	14	26
COc1ccccc1OCCCn1c(C(C)NC(=O)c2ccco2)nc2ccccc21 (stereo not drawn)	-4	1
O=C(/C=C/C(=O)N1CCCc2ccccc21)Nc1cccnc1	0	-1
O=C1CCC(C(=O)NNc2c(F)c(F)cc(F)c2F)=NN1	-1	-2
C=CCn1cnc2c(nnn2-c2ccc(C)c(Cl)c2)c1=O	-2	-7
CC(NC(=O)Cn1cnc2sc3c(c2c1=O)CCC3)c1cccs1 (stereo not drawn)	12	21
COc1ccc(/C=C2\SC(=S)N(CCc3ccccc3)C2=O)cc1	0	-5
c1ccc(-c2ccc(C3NCCc4[nH]cnc43)s2)cc1 (stereo not drawn)	-8	-10
CN(Cc1ccc(C(=O)Nc2ccc3c(c2)ncn3C)cc1)C1CCOCC1	2	8
O=c1[nH]c(Cc2cccs2)nc2c(Cl)cc(Cl)cc12	-4&7	-3&2
CNC(=O)CN(C)S(=O)(=O)c1cc(F)cc(F)c1	0	18
COc1ccc(CC(=O)N2CCC[C@@H]2C(=O)NCCNC(=O)c2ccc(OC)cc2)cc1	-1	0
CCOCC(O)CN(Cc1ccco1)Cc1c(C)nn(-c2ccccc2)c1Oc1ccc(F)cc1F (stereo not drawn)	-1	0

Other compounds.
molecule	NPYLR7 agonist	NPYLR7 agonist max-min
CN(Cc1cccc(C#N)c1)c1nc2ccccc2o1	15	15
O=C(c1cc2n(n1)CCN(Cc1cccc(C(F)(F)F)c1)C2=O)N1CCN(C/C=C/c2ccccc2)CC1	7	10
O=C(O)C=Cc1ccsc1	0	-2
Cc1nn(C)c(C)c1NC(=O)COc1cccc(C(F)(F)F)c1	1	-3
Fc1cccc(CC2CN(Cc3cn[nH]c3-c3ccccc3)CCO2)c1 (stereo not drawn)	9	4
N=P(N1CCOCC1)(N1CCOCC1)C12CC3CC(CC(C3)C1)C2	3	2
CCOC(=O)C1=C(O)/C(=C\c2cc(OC)c(O)c(OC)c2)SC1=Nc1ccccc1Cl	-3	6
COc1ccc(OC)c(-c2csc(NC(=O)c3ccoc3)n2)c1	14	5
COc1ccc(OC)c(-c2nc(N)sc2N=Nc2ccc(S(N)(=O)=O)cc2)c1	3	8
CC(CO)(NC(=O)NCc1ccccn1)C1CCCCC1 (stereo not drawn)	4	1
CCCN1CCCC1C(=O)N1CCCN(Cc2nccn2C)CC1 (stereo not drawn)	8	6
Cc1cc([N+](=O)[O-])nn1CC(=O)Nc1ccc(Br)cn1	-3	-10
CCOC(=O)C(C#N)=Cc1cn(-c2ccccc2)nc1-c1ccc(F)cc1	-4	-9
Cc1ccc2ncc(C(=O)NCc3ccccc3)c(=O)n2c1	-1	-2
Cc1nc(N2CCN(C(=O)/C=C/c3ccccc3)CC2)cc(-n2cccn2)n1	-11	-14
O=C(c1cncc(Br)c1)N1CCC(N2CCCC2)CC1	14	1
CCOC(=O)c1csc(CSc2nnc(C)n2-c2cccc(C)c2)n1	21	24
O=C(c1ccc(-c2ccc(F)c(F)c2)s1)N1CCc2ccccc2C1c1ccc(F)cc1 (stereo not drawn)	22	6
Cc1cccc(-n2c(-c3ccc(Cl)cc3)cc(C(=O)N3CCN(C(=O)CCC4CCCC4)CC3)c2C)c1	-6	-8
CN(C)CCNC(=O)c1cc2n(n1)CCN(S(=O)(=O)c1ccccc1)C2	7	5

The last two records of the section before are carried over, then new ones follow:
molecule	NPYLR7 agonist	NPYLR7 agonist max-min
Cc1cccc(-n2c(-c3ccc(Cl)cc3)cc(C(=O)N3CCN(C(=O)CCC4CCCC4)CC3)c2C)c1	-6	-8
CN(C)CCNC(=O)c1cc2n(n1)CCN(S(=O)(=O)c1ccccc1)C2	7	5
CCCCCCC(=O)Nc1c(-c2ccc(C)cc2)nc2ccccn12	-5	-5
CCc1cc2c(SC(C)C(N)=O)ncnc2s1 (stereo not drawn)	4	11
Cc1ccc(/C=N\Nc2nncn2N)cc1	-15	-18
COCc1c(Cl)cccc1NC(=O)[C@@H]1CCCN1C(C)=O	4	4
CCCCc1ccc(NC(=O)Cn2nc(-c3ccco3)c3sc(C)nc3c2=O)cc1	2	0
Clc1cccc(Cn2cnnc2-c2ccncc2)c1	1	0
O=C(c1ccc(OCCCc2cnc[nH]2)cc1)C1CC1	-4	-23
COC(=O)C(c1ccc(F)cc1Cl)C1C=CC(NC(=O)c2ccccc2SC(F)F)C1 (stereo not drawn)	9	19
Cc1csc(=O)n1CCC(=O)N1CCCC1c1nc2ccccc2[nH]1 (stereo not drawn)	-2	-3
CC(c1cc2ccccc2[nH]1)N(C)C(=O)c1cnn2ccn(C)c12 (stereo not drawn)	16	2
Cc1cccc(-n2[nH]c(-c3ccccc3F)c(-c3ccc(NC(=O)Cc4ccccc4)cc3)c2=O)c1	21	25
COC(=O)[C@@H]1[C@H](C(=O)NCC2COc3ccccc3O2)[C@@H]2C=C[C@H]1C2 (stereo partly drawn)	-3	-13
COCCNC(=O)c1cc(NC(=O)C(Cl)c2ccccc2)ccc1N1CCC(C)CC1 (stereo not drawn)	2	15
O=C1c2cccc3cccc(c23)C(=O)N1CCCN(C(=O)c1ccccc1)c1ccccc1	6	10
CC1CCCC(c2ccccc2)N1CCCN1CCOC1=O (stereo not drawn)	3	8
Cn1cc(S(=O)(=O)N2CCN(Cc3ccccc3)CC2)c(=O)n(C)c1=O	-1	-3
NS(=O)(=O)c1ccc(CNC(=O)c2cc(=O)c(OCc3ccccc3)co2)cc1	1	-1
CCc1ccc(-c2nn(-c3cc(N4CCOCC4)ccc3[N+](=O)[O-])c(=O)c3ccccc23)cc1	-1	1

Some of the compounds tested; count on the stated rates, not on these rows.
